YjeE inh: qHTS Assay for Inhibitors of YjeE. tRNA threonylcarbamoyladenosine biosynthesis protein TsaE (Escherichia coli (strain …. hit rate 0.05% among 71,000. purified YjeE, fluorescence polarisation of a bound ADP probe. AID 605, 2007. Potency, µM; active = well fitted falling curve; inconclusive = weaker or top-dose-only fall, or a rising curve; inactive = flat or poorly fitted curve;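 further: top concentration of the series not given in the record; excess ADP was the control for the full effect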
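Purified YjeE (10 uM) with BODIPY Texas Red-labeled ADP probe (2 uM); compounds pin-transferred, 15 min at room temperature. Binding inhibition read as decreased fluorescence polarization; ADP titration as control.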
PK Bst: Pyruvate Kinase; hit rate 1.2% among 51,000; partly purified Bacillus stearothermophilus pyruvate kinase, luminescence ATP production; ribose 5-phosphate activator present at AC10; AID 361, 2006; Potency, µM; in the data active means potency below about 11 µM; inconclusive means mostly about 12 µM to 25 µM; inactive means weaker than that;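 the screen sought inhibitors and activators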;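 further: potency means the concentration at half of the fitted maximal effect; scaled between full activation by ribose 5 phosphate and full inhibition by luteolin; about four in five hits inhibit and the cells do not say which; series up to 57 µM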
The depositor's hits bear a star; i = inactive; ? = inconclusive; . = no result given.

YjeE inh | PK Bst | compound
i | >57 | O=C(CCCCC(=O)NCc1cccs1)NCc1cccs1
i | >57 | O=C(NC1CCCCCC1)c1c(O)c2cccc3c2n(c1=O)CCC3
i | . | CC(C)(SCc1ccccc1)[C@H](N)C(=O)O
i | >57 | O=C1NC(Cc2c[nH]c3ccccc23)C(=O)N1CCOc1ccc(F)cc1 (configuration not stated)
i | . | COc1ccc(-n2c(Cc3cccn3C)nnc2SCC(N)=O)cc1
i | >57 | Cc1nn(-c2ccc(Cl)cc2)c2[nH]c(=O)c(CNCc3ccc4c(c3)OCO4)cc12
i | >57 | O=C(Nc1nc2ccccc2n1CCOc1ccccc1)c1ccco1
i | >57 | CS(=O)(=O)c1ccc2nc(NC(=O)CN3CCN(Cc4ccccc4)CC3)sc2c1
i | >57 | Cc1ccc(S(=O)(=O)NC(=O)N2CCCC(C)(C)C2)cc1
i | >26 | CCCSc1ccc2nc(NC(=O)OC)[nH]c2c1
i | >57 | COc1ccc(-c2nnc(SC(C)C#N)o2)cc1 (configuration not stated)
i | . | Cc1ccccc1N(CC(=O)NCCSCc1ccco1)S(C)(=O)=O
i | >57 | COc1ccc2nc(NC(=O)CSc3nnnn3C3CCCCC3)sc2c1
i | . | CCCc1nc(SCc2cccnc2)c2c(=O)n(C)c(=O)n(C)c2n1
i | >57 | c1ccc(-n2c(SCc3nc(-c4cccs4)no3)nnc2-c2ccco2)cc1
i | >57 | Cc1cc(C(=O)Nn2cnnc2)cs1
i | >57 | CCn1c(SCC(N)=O)nnc1-c1ccco1
i | >57 | COC(=O)c1cccc(N2C(=O)C(Cl)=C(N3CCOCC3)C2=O)c1
i | >57 | O=C1c2oc3ccc(Br)cc3c(=O)c2C(c2cccnc2)N1Cc1ccco1 (configuration not stated)
i | . | COc1ccc(CNC2=CC(=O)CC(C)(C)C2)cc1
i | . | COc1ccc(Nc2cc(C)nc3nc(C)nn23)c(OC)c1
i | >57 | CCOC(=O)C1=C(C)N=C(/N=C/N(C)C)SC1c1ccccc1 (configuration not stated)
i | . | CC(=O)c1c(C)[nH]c(C(=O)NCCc2ccccc2)c1C
i | . | CC(C)(C)C(=O)[C@H]([C@@H](c1ccccc1)N1CCOCC1)N1CCOCC1
i | >57 | COc1ccc(C(CCc2ccc(C)o2)NC(=O)Nc2ccc(OC)cc2OC)cc1 (configuration not stated)

Next part; the last six above are carried over.
YjeE inh | PK Bst | compound
i | . | COc1ccc(CNC2=CC(=O)CC(C)(C)C2)cc1
i | . | COc1ccc(Nc2cc(C)nc3nc(C)nn23)c(OC)c1
i | >57 | CCOC(=O)C1=C(C)N=C(/N=C/N(C)C)SC1c1ccccc1 (configuration not stated)
i | . | CC(=O)c1c(C)[nH]c(C(=O)NCCc2ccccc2)c1C
i | . | CC(C)(C)C(=O)[C@H]([C@@H](c1ccccc1)N1CCOCC1)N1CCOCC1
i | >57 | COc1ccc(C(CCc2ccc(C)o2)NC(=O)Nc2ccc(OC)cc2OC)cc1 (configuration not stated)
i | . | CCOC(=O)c1ccc(NC(=O)c2nn(CC)cc2Br)cc1
i | . | CC1(C)CC(=O)c2cnc(NC(=O)CCc3ccccc3)nc2C1
i | >57 | COC(=O)c1ccc(C(C(=O)NCc2ccccc2)N(Cc2ccco2)C(=O)c2cnccn2)cc1 (configuration not stated)
i | . | COc1cccc(N2CCN(C(=O)c3ccc4nc(N5CCCCC5)sc4c3)CC2)c1
i | >57 | CC(=O)Oc1cccc(/C=c2\sc3nc(-c4ccco4)nn3c2=O)c1
i | >57 | Cc1cnc(C(=O)OCC(=O)Nc2cccc(Cl)c2)cn1
i | >57 | CC1CCN(C(=O)CN(CCc2ccccc2)S(C)(=O)=O)CC1
i | >57 | O=S(=O)(C/C(=C/CO)S(=O)(=O)c1ccccc1)c1ccccc1
i | >57 | Nc1nc(CN2CCN(c3ccc(F)cc3)CC2)nc(N2CCCc3ccccc32)n1
i | i | COC(=O)c1cc(C(=O)OC)cc(N2C(=O)CC(Sc3nc(C)cc(C)n3)C2=O)c1 (configuration not stated)
i | >57 | O=C(CSc1nc2c(cnn2-c2ccccc2)c(=O)[nH]1)N1CCOCC1
i | >57 | CC(C)NC(=O)c1n[nH]c(=O)c2ccccc12
? | . | Cc1cc(N)c2ccccc2[n+]1CCCCCCCCCC[n+]1c(C)cc(N)c2ccccc21
i | >57 | COc1ccccc1N1CCN(C(=O)c2ccc(Br)s2)CC1
i | >57 | O=C(CSCC(=O)OCn1nnc2ccccc2c1=O)Nc1ccc(Cl)cc1
i | >57 | COC(=O)c1ccc(C2NC(=O)NC(C)=C2C(=O)N(C)C)cc1 (configuration not stated)
i | >57 | COc1cc(-n2nnnc2SCC(=O)N2CCN(c3ccc(F)cc3)CC2)c(OC)cc1Cl
i | >57 | Cc1ccccc1C(=O)NC1CCN(CC(=O)Nc2nccs2)CC1
i | . | CCN(CC)c1ccc(NS(=O)(=O)c2ccc3c(c2)oc(=O)n3C)c(C)c1
i | >57 | Cc1c(Cl)cccc1NC(=O)CCCCCN1C(=O)CCC1=O
i | . | Cc1ccc(CCN2C(=O)CCC2(C)C(=O)NC2CCCC2)cc1 (configuration not stated)
i | . | COC(=O)c1ccc(C(NC(=O)OCc2ccccc2)/C(=C/[C@@H](C)C(=O)NCc2cc(C)n(C)n2)c2cccnc2)cc1 (some centres not stated)
i | >57 | CCOc1ccc2nc(NCCNC(=O)Nc3ccccc3)c(C#N)cc2c1
i | . | CCCCOCCCNC(=O)Cc1ccccc1OC
i | >57 | Cc1ccc(N2CC(C(=O)NC3CCSC3=O)CC2=O)cc1 (configuration not stated)

Continuation.
YjeE inh | PK Bst | compound
i | . | COc1cccc(-c2nc(CS(=O)(=O)CC(=O)Nc3cccc(C)c3C)c(C)o2)c1
i | ? | CCCN1C(=O)C(O)(CC(=O)c2ccc3c(c2)OCCO3)c2ccccc21 (configuration not stated)
i | >57 | CC(C)N(Cc1nc(-c2ccc(Cl)cc2)no1)C(=O)C12CC3CC(CC(C3)C1)C2
i | . | O=C(O)c1ccc([N+](=O)[O-])cc1
i | . | CCCC(NS(=O)(=O)c1ccc(Br)cc1)C(=O)O (configuration not stated)
i | >57 | CC(C)N(C=O)C1(C(=O)NC2CCCCC2)CCCCC1
i | . | ON=C1/C(=N\O)CC2(C/C1=N/O)OCCO2
i | . | O=C(c1ccncc1)N1CCC[C@@]2(CCN(c3cccc(-c4ccccc4)c3)C2)C1
i | >57 | CCN(CC)C(c1ccc(F)cc1)c1nnnn1C1CCCCC1 (configuration not stated)
i | 0.44* | c1ccc2c(c1)CCN(c1nc3cc4c(cc3s1)OCCO4)C2
i | . | CC1=C(C(=O)OC(C)C)C(c2cccs2)n2ncnc2N1 (configuration not stated)
i | >57 | CC(NC(=O)C1CC=CCC1C(=O)O)C1CC2CCC1C2 (configuration not stated)
i | >57 | Cc1ccc(CNC(=O)CCCOc2cc(=O)n(C)c3ccccc23)o1
i | >57 | CCn1c(SCC(=O)N2CCCC2)nc2c1c(=O)n(C)c(=O)n2C
i | >57 | Cc1ccc(SCCN2C(=O)NC(C)(C)C2=O)cc1
i | . | Cn1c(NCc2c[nH]c3ccccc23)nc2ccccc21
i | >57 | CC1CCN(S(=O)(=O)c2cccc(-c3nnc(-c4cccnc4)o3)c2)CC1
i | . | COc1ccc2[nH]cc(CCNc3ccnc(-c4ccccc4Cl)n3)c2c1
i | >57 | O=C(CCN1CCOCC1)Nc1ccc2c(c1)N(C(=O)CN1CCOCC1)c1ccccc1CC2
i | >57 | O=C(O)C1CCCCC1C(=O)NCc1ccc(F)cc1 (configuration not stated)
i | >57 | COc1cc(NC(=O)c2ccco2)c(OC)cc1NC(=O)CSc1ncc(-c2ccc(F)cc2)[nH]1
i | >57 | O=C1CC(c2ccc(F)cc2)Cc2nc(NCc3ccco3)ncc21 (configuration not stated)
i | >57 | O=C(Cn1nnc2ccccc2c1=O)NCc1ccco1
. | >26 | COc1ccccc1C1/C(=C(/O)c2ccc(C)cc2)C(=O)C(=O)N1CCN1CCOCC1 (configuration not stated)
i | . | O=c1c(CCc2ccccc2)nc2cnc(N3CCNCC3)nc2n1C1CC1

Single records, from the list above. Order of values: YjeE inh	PK Bst
Profile of CC1CCN(S(=O)(=O)c2cccc(-c3nnc(-c4cccnc4)o3)c2)CC1 : i	>57
Profile of Cc1ccc(CNC(=O)CCCOc2cc(=O)n(C)c3ccccc23)o1 : i	>57
Profile of COc1cc(NC(=O)c2ccco2)c(OC)cc1NC(=O)CSc1ncc(-c2ccc(F)cc2)[nH]1 : i	>57

Additional entries follow:
YjeE inh | PK Bst | compound
i | >57 | CCOC(=O)Cc1nn2c(=O)cc(C)nc2s1
i | . | Nc1nc(-c2c[nH]c3ccccc23)cs1
i | . | COc1cccc(/C=N/n2cnnc2)c1OCc1ccccc1
i | . | CNc1nnc(-c2cccc(N(C)C)c2)s1
i | >57 | Cc1ccccc1Cn1nc(C)c(NC(=O)c2cc3n(n2)C(C(F)F)CC(C(F)F)N3)c1C (configuration not stated)
i | >57 | O=C(CCc1nc(-c2ccccc2F)no1)NCc1ccco1
i | >57 | O=C(CCN1CCN(C(=O)c2ccco2)CC1)Nc1ccc(F)cc1
. | >26 | O=C1C(=O)N(Cc2cccnc2)C(c2ccccn2)/C1=C(/O)c1ccc(F)cc1 (configuration not stated)
i | . | CCCCn1cnc2c(SC)ncnc21
i | >57 | CCOC(=O)c1cc2sc(C)cc2n1C(C)C(=O)OCC (configuration not stated)
i | >57 | O=C(C1CCC(CNc2nc(=S)[nH]c3ccccc23)CC1)N1CCN(c2ccccn2)CC1 (configuration not stated)
i | >57 | C=CCSc1nnc(-c2ccncc2)n1-c1ccc(OCC)cc1
i | >57 | O=C1OCc2cc(NC(=O)C3CCCCC3)ccc21
i | >57 | COc1ccc(C(C(=O)NC2CCCC2)N(CCN(C)C)C(=O)c2snc(C(N)=O)c2N)cc1 (configuration not stated)
i | . | C=CCN(CC=C)S(=O)(=O)c1ccc2nsnc2c1
. | >26 | CCc1nc(NCC(C)C)c(C#N)c2c1COC(C)(C)C2
i | . | Cc1cccc(Cn2c(SCCN3CCOCC3)nc3c2c(=O)n(C)c(=O)n3C)c1
i | >57 | O=C(CN1C(=O)c2cccc3cccc1c23)N1CCN(c2ccccc2)CC1
i | >57 | COc1cc(CN2CCC(C(=O)NC3CCCC3)CC2)cc(Br)c1O
i | >57 | CCCCS(=O)(=O)NC1=NCN(CCO)CN1
i | >57 | O=C(CSc1nnc(Cc2cc(=O)[nH]c(=O)[nH]2)n1-c1ccccc1)N1CCCc2ccccc21
i | >57 | CC(C)[C@@H]1NC(=O)N(c2ccc(Oc3ccccc3)cc2)C1=O
i | . | O=C(Nc1ccccc1C(=O)N1CCN(Cc2ccccc2)CC1)c1ccccn1
i | >57 | COc1ccccc1C(=O)NC(C)c1nc2ccccc2[nH]1 (configuration not stated)
i | . | O=C1CC(Nc2ccc(N3CCOCC3)cc2)C(=O)N1c1ccccc1F (configuration not stated)

Next part, overlapping the part above by two compounds.
YjeE inh | PK Bst | compound
i | >57 | COc1ccccc1C(=O)NC(C)c1nc2ccccc2[nH]1 (configuration not stated)
i | . | O=C1CC(Nc2ccc(N3CCOCC3)cc2)C(=O)N1c1ccccc1F (configuration not stated)
i | i | COc1ccc(OC)c2[nH]c(=O)c(CCNC(=O)C3CCCCC3)cc12
i | . | Cc1ccc(S(=O)(=O)N(C)c2ccc(C(=O)N3CCC(C(N)=O)CC3)cc2)cc1
i | >57 | C=CCn1c(=N)n(CC(=O)O)c2ccccc21
i | >57 | CCCCCCn1c(C(C)NC(=O)c2ccco2)nc2ccccc21 (configuration not stated)
i | >57 | N#CCCn1cnc2ccccc21
i | >57 | O=C(CCC(=O)c1cccs1)OCC(=O)N1CCN(S(=O)(=O)c2ccccc2)CC1
i | >57 | CCOC(=O)N1CCN(C(=O)Cn2nc(-c3ccc(Cl)cc3)ccc2=O)CC1
i | >57 | O=C(NCN1CCN(c2ccccc2F)CC1)c1ccccc1
i | >57 | CCCCNC(=O)c1cc2c(=O)n3cccc(C)c3nc2n(CCN2CCOCC2)c1=N
. | >26 | Cc1nc(NS(=O)(=O)c2ccccc2)sc1NC(=O)OCCN(C)C
i | >57 | CCOc1ccc(C(=O)O)cc1OC
i | >57 | CN1CCN(C(=O)c2ccccc2-c2nc(-c3ccccc3)no2)CC1
i | . | COc1cccc(Cn2c(=O)c(-c3cccs3)nc3cnc(N4CCOCC4)nc32)c1
i | . | CCCOc1cccc(C(=O)Nc2cccnc2)c1
. | >11 | COc1ccc(N2C(=O)CC(N(Cc3ccc(S(N)(=O)=O)cc3)C(C)=O)C2=O)cc1 (configuration not stated)
i | >57 | CNC(=O)CSc1nnc(-c2ccncc2)n1Cc1ccccc1
i | . | Oc1c(/C=N/c2ncn[nH]2)ccc2ccccc12
i | . | Cc1ccc2nc(NC3=NCN(CCc4ccccc4)CN3)nc(C)c2c1
i | >57 | CCN(CC(=O)Nc1ccc2c(c1)OCCO2)C(=O)C1CCCCC1
i | >57 | O=C(c1cnn2c1NC(c1ccco1)CC2C(F)(F)F)N1CCN(c2cccc(Cl)c2)CC1 (configuration not stated)
i | . | CCOC(=O)N1CCC(Nc2cccc(SC)c2)CC1
i | >57 | COc1ccccc1NC(=O)CN1CCN(c2ccccc2F)CC1
i | . | Cc1ccccc1-c1nc(CS(=O)(=O)CC(=O)N2CCc3ccccc32)c(C)o1
i | >57 | O=C(CCN1C(=O)C2C3C=CC(C3)C2C1=O)N1CC(=O)N(CCc2ccccc2)C(=O)C1 (configuration not stated)
i | >57 | COc1ccc(C2(CNC(=O)CCC(=O)O)CCCC2)cc1
i | >57 | COc1ccc(C(=O)N(CC(=O)NC(C)(C)C)c2ccc3c(c2)OCCO3)cc1OC
i | >57 | N#CC1(c2nc3ccccc3[nH]2)CC1c1ccc2c(c1)OCO2 (configuration not stated)

An excerpt; rates above refer to the full screens.
